VDR inhibitor: blocks the human vitamin D receptor; AID 504847; VDR-SRC2-3 peptide fluorescence polarization, 2 h; Potency, µM, inactives show max response, negative = inhibition, most hits filed as inhibitors; P11473; actives 0.93% (n = 400,000); active means well fitted inhibition curve with a large enough effect; inconclusive means small, poorly fitted or top-dose-only effect, or another doubt; inactive means no such curve, though single readings can be large or run the other way; further: series mostly up to about 120 µM
Target sequence (P11473 whole entry, looked up): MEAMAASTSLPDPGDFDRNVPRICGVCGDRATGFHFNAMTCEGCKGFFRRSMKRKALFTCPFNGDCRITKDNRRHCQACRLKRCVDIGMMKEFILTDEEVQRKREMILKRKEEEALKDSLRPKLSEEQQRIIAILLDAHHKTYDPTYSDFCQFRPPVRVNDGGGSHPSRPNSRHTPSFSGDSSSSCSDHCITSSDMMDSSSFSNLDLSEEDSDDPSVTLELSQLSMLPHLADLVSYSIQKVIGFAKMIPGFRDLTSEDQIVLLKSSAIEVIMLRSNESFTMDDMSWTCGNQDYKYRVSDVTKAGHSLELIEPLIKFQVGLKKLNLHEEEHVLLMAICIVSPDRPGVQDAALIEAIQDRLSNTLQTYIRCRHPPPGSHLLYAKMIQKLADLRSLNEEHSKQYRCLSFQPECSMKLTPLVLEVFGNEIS
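Fluorescence polarization assay measuring small-molecule disruption of VDR binding to the coregulator peptide SRC2-3. Compounds were pin-transferred (23 nl) into the reagent mix and incubated 2 h at room temperature before reading.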
* = called active by the depositor; ? = inconclusive; & = joins results of further samples; [ ] = remark or other dose. On the % scale 0 is the no-effect control and ±100 the full control effect; potency means the concentration at half of the fitted maximal effect. An excerpt. The share of hits here may be higher or lower than overall.

SMILES | VDR inhibitor
C=Cn1cc[n+](CC(=O)c2ccc(-c3ccccc3)cc2)c1 | -6%
COc1ncccc1C(=O)N1CCCC(C(=O)c2cc(F)ccc2F)C1 (stereo unspecified) | -5%
N#Cc1ccccc1Sc1ccccc1C(=O)OCC(=O)NC12CC3CC(CC(C3)C1)C2 | 7%
Cc1c(Cl)cccc1Nc1nc(N)nc(CN2CCCCCC2)n1 | -8%
CCC1CCCCN1CCCNC(=O)c1ccc2c(c1)N(Cc1cccc(Cl)c1)C(=O)c1ccccc1S2(=O)=O (stereo unspecified) | 6%
O=C(CSC(=S)N1CCCC1)Nc1ccc(Br)cc1Cl | 5%
CN(C)CCCN(C(=O)c1ccco1)c1nc2c(F)cc(F)cc2s1 | -1%
N#CC(C#N)=C1C=C2C=C(N3CCOCC3)CCC2CC1 (stereo unspecified) | 71µM*
O=C(CCNS(=O)(=O)c1cccc2nsnc12)NCCc1ccccc1 | 13%
Cc1cc(C)cc(NC(=O)CCC(=O)Nc2nnc(C(C)C)s2)c1 | -3%
C[C@H](NC(=O)c1ccc(C(C)(C)C)cc1)C(=O)N1CCOCC1 | -5%
c1ccc(Nc2c3c(nc4ncnn24)CCC3)cc1 | -5%
O=C(Cc1nnc(NC(=O)c2ccccc2)s1)N/N=C\c1ccc(O)c(O)c1 | -9%
COc1ccc(C=O)cc1OS(=O)(=O)c1ccc(NC(C)=O)cc1 | -7%
CCOC(=O)C1CCCN(C/C=C/c2ccccc2[N+](=O)[O-])C1 (stereo unspecified) | -2%
C(=N\Nc1nc2ccccc2[nH]1)/c1cccs1 | -14%
O=C(O)c1ccc(NC(=S)N2CCCCC2)cc1 | 0%
S=C1NNC2(CC3CC2C2CCCC32)NN1 (stereo unspecified) | 10%
c1ccc(CSc2ccc3nnc(-c4cccnc4)n3n2)cc1 | -3%
O=C(OCC(O)C(O)C(O)C(SCc1ccccc1)SCc1ccccc1)c1ccccc1 (stereo unspecified) | 13%
Cn1cc(Br)c(-c2cccc(N3C(=O)CC(C)(C)CC3=O)c2)n1 | -25%
Cc1ccc(NC(=S)NC(=O)c2cncc(Br)c2)cc1Cl | 13%
COc1ccc(-c2noc(CCc3ccccc3)n2)cc1 | -6%
COc1ccccc1-c1nnc(SCCOc2ccccc2C)o1 | 14%
CN(C)CCNc1ncnc2oc(-c3ccccc3)c(-c3ccccc3)c12 | 0%
CN(C(=O)c1cccc(NC(=O)Cc2ccc(NC(=O)C3CCN(C(=O)C4CCC4)CC3)cc2)c1)C1CC1 | -14%
CS(=O)(=O)N1N=C(c2ccco2)CC1c1ccc(Br)cc1 (stereo unspecified) | -6%
O=c1c2ccccc2nc(SCc2nc3ccccc3s2)n1CCCO | 1%
O=S1(=O)Nc2c(ccc3cccnc23)-c2ccccc21 | -9%
COCCN1CCn2c(nc3cc(Nc4nnc(C)c5ccccc45)ccc32)C1 | -24%
CCCCNC(=O)c1oc2ccc(S(=O)(=O)N3CCCC3)cc2c1C | 5%
CCCC(=O)Nc1c2c(nn1-c1ccc(OC)cc1)CS(=O)(=O)C2 | -1%
O=C1C(Cl)=C(NCCN2CCOCC2)C(=O)c2ccccc21 | -13%
CC(=O)Nc1ccc(Sc2ccccc2C(=O)O)cc1 | 41%[activator]
COc1ccccc1CNC(=O)C(=O)NCC(c1ccc2c(c1)OCO2)N1CCOCC1 (stereo unspecified) | 7%
CCN(CC)C(=O)[C@H]1CC(CC(=O)NC(C)(C)C)C(=O)N2CCc3c([nH]c4ccc(OC)cc34)[C@]12C (stereo partly specified) | 2%
CCCc1nccn1S(=O)(=O)c1cc(Br)ccc1OC | 15%
Cc1ccc(S(=O)(=O)c2nc(-c3cccs3)oc2SCC(=O)Nc2cc(C)cc(C)c2)cc1 | 4%
COc1cccc(C(=O)C2CCCN(Cc3cccc(OCCO)c3)C2)c1 (stereo unspecified) | -25%
CC(=O)N1CCc2cc(Br)cc(S(=O)(=O)NCCCN3CCC(C)CC3)c21 | 3%
CCOC(=O)c1cc2sc(C)cc2n1CC(=O)NCc1ccc(F)cc1 | 5%
CC(=O)c1ccc(NC(=O)CCNC(=O)c2ccc(Cl)cc2)cc1 | 13%
CC1CCCC(C)N1C(=O)COC(=O)c1c[nH]c2ccccc12 (stereo unspecified) | -8%
Cc1ccc(-n2ncc3c(NCCC4=CCCCC4)ncnc32)cc1 | -4%
COc1ccc(OC)c(NC(=O)C(=O)c2cn(CC(=O)N3CCCC3)c3ccccc23)c1 | 6%
O=C(Nc1ccc(-c2nc3cc(NC(=O)c4ccccc4F)ccc3o2)cc1)c1ccccc1F | 1%
CCOc1ccc(S(=O)(=O)NCCC(=O)NCC(c2ccc(F)cc2)N2CCOCC2)cc1 (stereo unspecified) | -20%
COC(=O)c1c(NC(=O)CN2C(=O)NC(CCc3ccccc3)C2=O)sc2c1CCCCC2 (stereo unspecified) | 3%
COc1ccc(C(=O)Nn2c(SCC(=O)NC3CCCC3)nc3ccccc3c2=O)cc1 | 11%
COc1ccc(CNc2ncncc2-c2ccccc2C)c(OC)c1 | ?

(list continues)
SMILES | VDR inhibitor
CC(C)(C)c1ccc(C(=O)Nc2nnc(Cc3c[nH]c4ccccc34)s2)cc1 | 12%
N/C(CSc1ccccn1)=N\OCc1c(Cl)cccc1Cl | -15%
CCOC(=O)c1c(C)n(CC(O)CN(CC)CC)c2cc(Br)c(OC)cc12 (stereo unspecified) | -17%
Cc1ccccc1Nc1cc(C)c2c(O)cccc2n1 | 8%
Cc1ccc(C(=O)NCc2ccc(F)cc2)cc1NC(=O)c1nsc2ccccc12 | 13%
CCOc1ccc(-n2nc3ccc(N)cc3n2)cc1 | -23%
O=C(NCCS(=O)(=O)N1CCN(c2ccccc2F)CC1)C(c1ccccc1)c1ccccc1 | 16%
CCN(c1ccccc1)S(=O)(=O)c1ccc(OC)c(NC(=O)CNC)c1 | -18%
COc1ccc(S(N)(=O)=O)cc1C(N)=O | 14%
COc1ccc(Nc2cc(C)c3cc([N+](=O)[O-])ccc3n2)cc1 | 4%

Structures from the list above with a furan ring, fused or not (4):
SMILES | VDR inhibitor
CN(C)CCCN(C(=O)c1ccco1)c1nc2c(F)cc(F)cc2s1 | -1%
CN(C)CCNc1ncnc2oc(-c3ccccc3)c(-c3ccccc3)c12 | 0%
CS(=O)(=O)N1N=C(c2ccco2)CC1c1ccc(Br)cc1 (stereo unspecified) | -6%
CCCCNC(=O)c1oc2ccc(S(=O)(=O)N3CCCC3)cc2c1C | 5%

Next section.
SMILES | VDR inhibitor
Cc1c(NC(=O)CSc2nnnn2Cc2ccccc2)c(=O)n(-c2ccccc2)n1C | -3%
Cc1nnc(-c2ccccc2)o1 | -12%
Cc1cccc(Nc2cc(C)nc3ccccc23)c1 | -1%
Cc1cccc(C)c1OCC(O)CN (stereo unspecified) | 2%
Cc1cccc(NC(=O)Cn2cnc3sc(C)c(S(=O)(=O)N4CCC(C)CC4)c3c2=O)n1 | 2%
CC(C)(C)CC(C)(C)NCC(O)COc1c(F)cc(Br)cc1F (stereo unspecified) | 3%
COc1cc(O)c2c(c1)C(=O)c1cc(C)cc(O)c1C2=O | 22µM*
CN(C1CCCCC1)S(=O)(=O)c1ccc(SCC(=O)NC(C)(C)C)nc1 | 11%
O=C(NCc1cccs1)[C@@H]1CCCN1S(=O)(=O)c1ccccc1F | 16%
CN=C1S/C(=C\c2c(OC)cc(OC)cc2OC)C(=O)N1C | -3%
COc1ccc(C(=O)NCC(=O)Nc2cccc(S(=O)(=O)N3CCCC3)c2)cc1 | -4%
CCOC(=O)/C=C1\NC2(CCCCC2)Cc2cc(OC)c(OC)cc21 | -11%
Cc1cnc(NC(=O)[C@H](C)N2C(=O)C3CCCCC3C2=O)s1 (stereo partly specified) | 5%
Cc1ccc(C2C=C(c3ccccc3)Nc3nc(NS(=O)(=O)c4ccccc4)nn32)cc1 (stereo unspecified) | -13%
O=C(COc1ccc(F)cc1)N(CC1=CCS(=O)(=O)C1)c1ccccc1 | 7%
CN(C)S(=O)(=O)c1cccc(NC(=O)CNC2CCCCC2)c1 | -18%
CC(=O)Nc1ccc(S(=O)(=O)N(C)CC(=O)N/N=C/c2cccs2)cc1 | -1%
OCCC1CN(Cc2cccc3nccnc23)CCN1C1CCCC1 (stereo unspecified) | -5%
O=C(c1cccs1)N1CCN=C1SCc1ccccc1 | -10%
Cc1[nH]c(C(=O)O)c(C#N)c1C(=O)c1ccccc1 | -18%

Copied from the listing (six entries):
SMILES | VDR inhibitor
COc1ccc(C(=O)NCC(=O)Nc2cccc(S(=O)(=O)N3CCCC3)c2)cc1 | -4%
CCOC(=O)/C=C1\NC2(CCCCC2)Cc2cc(OC)c(OC)cc21 | -11%
Cc1cnc(NC(=O)[C@H](C)N2C(=O)C3CCCCC3C2=O)s1 (stereo partly specified) | 5%
Cc1ccc(C2C=C(c3ccccc3)Nc3nc(NS(=O)(=O)c4ccccc4)nn32)cc1 (stereo unspecified) | -13%
O=C(COc1ccc(F)cc1)N(CC1=CCS(=O)(=O)C1)c1ccccc1 | 7%
CN(C)S(=O)(=O)c1cccc(NC(=O)CNC2CCCCC2)c1 | -18%

The results go on.
SMILES | VDR inhibitor
CC(C)OC(=O)CSc1nnc(-c2ccccn2)n1-c1ccccc1 | 0%
O=C(CN1CCN(c2ccc(F)cc2)CC1)c1ccc2c(c1)OCO2 | -8%
CCOc1ccc(/C(O)=C2/C(=O)C(=O)N(c3ncccn3)C2c2ccc(C)cc2)cc1 (stereo unspecified) | 24%
Cc1cc(C)c2cc(C(=O)Nc3ccc(C)c(F)c3)[nH]c2c1 | 1%
CCOC(=O)C1CCCN(C(=O)c2ccc(CS(=O)(=O)c3ccc(C)cc3)o2)C1 (stereo unspecified) | -3%
COC(=O)Cc1c(C)c2ccc(OC(=O)c3ccccc3)cc2oc1=O | -5%
COc1ccc(-c2cc(C(=O)NCCCN3CCOCC3)c3ccccc3n2)cc1OC | ?
Cc1cc2cc(CNC(=O)CCC(=O)O)ccc2n1C | -12%
O=C(CCNC(=O)c1ccc(Br)cc1)NCC(c1ccco1)N1CCCCC1 (stereo unspecified) | -21%
CCn1cc(C(=O)O)c(=O)c2cnc(N3CCN(C(=S)Nc4ccccc4)CC3)nc21 | 11%
Nc1cccc2c1C(=O)N(Cc1cccc(Cl)c1)C2=O | -10%
CCOc1ccccc1C=NNc1ccc([N+](=O)[O-])cn1 | -16%
Cc1cc(S(=O)(=O)Cc2noc(-c3c(C)noc3C)n2)c(C)cc1Cl | 18%
COC(=O)COc1ccc(Oc2cc(C)nc(SC)n2)nn1 | -1%
Oc1ccc2ccccc2c1CN1CCCCC1 | -11%
O=C(NNc1ccccc1)Nc1ccccc1F | 7%
O=S(=O)(Nc1cccc(-c2ccc(N3CCCCCC3)nn2)c1)c1ccc(F)cc1 | -12%&-1%
CCc1ccc(N(CC)C(=O)CCn2cnc3onc(-c4ccc(F)cc4)c3c2=O)cc1 | 15%
CCN(CC)CC(=O)Nc1c(Br)ccc2c1OCO2 | -6%
O=c1cc(-c2ccccc2[N+](=O)[O-])oc2ccccc12 | -4%
O=C1ON=C(c2ccc(Cl)c([N+](=O)[O-])c2)/C1=C/c1cccc([N+](=O)[O-])c1O | 13%
CCOC(=O)c1c(C)[nH]c(C)c1S(=O)(=O)N1CCC(C(=O)NCc2cccc(OC)c2)CC1 | 9%
COc1ccc(-n2c(SCC(=O)Nc3nccs3)nnc2-c2ccccc2)cc1 | -11%
O=C(NCc1ccc(Cl)cc1)C1CCN(S(=O)(=O)c2cc([N+](=O)[O-])ccc2Cl)CC1 | -18%
OC1(c2ccccc2)c2ccccc2-c2ncccc21 (stereo unspecified) | -3%
CCc1ccc(C(=O)OCC(=O)Nc2cccc(S(=O)(=O)NC3=NCCCCC3)c2)cc1 | -1%
Cc1cccc(NC(=O)CN2C(=O)NC(Cc3ccccc3)C2=O)c1 (stereo unspecified) | -16%
Cc1oc(-c2ccc(Cl)cc2)nc1CS(=O)CC(=O)NC1CCCC1 (stereo unspecified) | -5%
CC(C)CCNC(=O)CN(C(=O)CCC(=O)Nc1nccs1)c1ccc2c(c1)OCCO2 | 11%
COc1ccc(NC(=O)CN(C)C(=O)CCCc2nc3ccccc3c(=O)[nH]2)cc1 | -5%
CCCCn1c(N)c(N(CC(C)C)C(=O)c2ccc(C)c(S(=O)(=O)N3CCCCC3)c2)c(=O)[nH]c1=O | -11%
CC1CCc2c(nc3ncnn3c2NCCN(C)C)C1 (stereo unspecified) | -18%
CC(=O)c1ccccc1Oc1ncnc(N)c1[N+](=O)[O-] | 0%
O=C1C2C(C(=O)N1Cc1cccnc1)C1C=CC2C12CC2 (stereo unspecified) | 6%
CCOC(=O)/C=C1\SCC(=O)N1CC(O)CN1C(=O)CS/C1=C\C(=O)OCC | 54%[activator]
CCOc1ccccc1NC(=O)Nc1ccc(OC)nc1 | -6%
O=C(N/C(=C\c1ccccc1)C(=O)N1CCOCC1)c1ccccc1Br | 4%
Cc1ccc(/C=N/NC(=O)c2nnn(-c3nonc3N)c2C(C)C)s1 | -12%
CC(C)CCn1nnnc1CN1CCN(C(c2ccccc2)c2ccccc2)CC1 | 9%
Cc1ccc(C(=O)OCC(=O)NC(=O)c2ccc(C(C)(C)C)cc2)c(O)c1 | -1%
C[C@@H](NC(=O)[C@@H]1Cc2ccccc2CN1)C(=O)Nc1ccc2c(c1)OCO2 | 6%
O=C(NC1CCN(C(=O)Nc2ccccc2)CC1)C1CCCCC1 | 5%
CCN(CC)S(=O)(=O)c1cc(C)ccc1NC(=S)Nc1cccnc1 | -14%
O=C(NCCCn1ccnc1)C(=O)NC1CCCCC1 | 9%
COc1ccc(N(C)S(=O)(=O)c2ccc3c(c2)NC(=O)CO3)c(OC)c1 | 17%
O=C(Cn1cncn1)c1ccccc1 | -1%
